Source: PubChem (Broad Institute)
STK33 kinase inh: blocks human STK33 kinase activity. inhibition, % at 10 µM. purified STK33, MBP phosphorylation, ADP-Glo luminescence. actives 0.073% (n = 320,000). AID 2661;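 active means inhibition at or above 25%, using the most active replicate where run in duplicate; inactive means inhibition below 25%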
Target sequence (Q9BYT3 whole entry, looked up): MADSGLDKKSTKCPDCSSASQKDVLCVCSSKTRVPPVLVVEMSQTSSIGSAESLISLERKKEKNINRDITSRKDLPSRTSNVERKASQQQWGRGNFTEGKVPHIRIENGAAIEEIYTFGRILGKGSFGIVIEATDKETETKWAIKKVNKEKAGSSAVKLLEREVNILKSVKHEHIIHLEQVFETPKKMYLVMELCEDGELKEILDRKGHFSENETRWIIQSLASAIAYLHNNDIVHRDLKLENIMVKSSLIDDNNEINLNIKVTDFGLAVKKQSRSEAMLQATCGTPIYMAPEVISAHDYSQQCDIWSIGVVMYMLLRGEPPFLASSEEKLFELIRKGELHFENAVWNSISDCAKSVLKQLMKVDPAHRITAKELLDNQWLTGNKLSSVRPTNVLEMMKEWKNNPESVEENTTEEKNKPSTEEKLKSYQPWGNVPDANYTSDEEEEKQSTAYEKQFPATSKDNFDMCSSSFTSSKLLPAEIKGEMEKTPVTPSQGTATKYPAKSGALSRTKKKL
* marks the source's active call; other numbers are inactive results.

SMILES	STK33 kinase inh
O=C(NCCCn1ccnc1)c1ccc(S(=O)(=O)Nc2ccccc2)cc1	-2.4
CCOc1ccccc1C(=O)N(Cc1ccccc1)Cc1cc2cc3c(cc2[nH]c1=O)OCCO3	-1.3
COc1ccc(NC(=O)CN2CCN(c3nc(-c4cccc(OC)c4)cs3)CC2)cc1	-0.8
Cc1ccc(S(=O)(=O)N2CCC(=O)N(C(COCc3cccc(C(F)(F)F)c3)Cc3ccccc3)CC2)cc1 (configuration not stated)	0.2
CC(NC(=O)Cn1cnnn1)C12CC3CC(CC(C3)C1)C2 (configuration not stated)	-0.1
Cc1cccc(NC(=O)NCCN2C(=O)C3C4C=CC(C4)C3C2=O)c1 (configuration not stated)	-0.7
COCCCN1C(=O)C(O)=C(C(=O)c2ccco2)C1c1ccc(Br)cc1 (configuration not stated)	-0.4
COc1ccc(C(=O)NC(C)C2CC3CCC2C3)cc1 (configuration not stated)	0.2
CCOC(=O)c1[nH]c2ccc(OC)cc2c1NC(=O)CCN1CCN(Cc2ccccc2)CC1	-0.2
CC(SCC(=O)NC12CC3CC(CC(C3)C1)C2)C(=O)O (configuration not stated)	-1.1
CCOC(=O)c1c(C)nc2sc(C(=O)Nc3ccc(C(C)=O)cc3)c(N)c2c1-c1ccc(OC)cc1	-0.7
Cc1nc2ccc(Oc3ccccc3)cc2s1	-0.4
Cn1cnnc1SCC(=O)Nc1ccc(Cl)cn1	-0.2
COc1ccc(N(CC(=O)NC(C)c2ccccc2)S(=O)(=O)c2ccc(C)cc2)cc1 (configuration not stated)	0.6
Cc1nc2ccccc2n1CC(=O)N/N=C\C=C\c1ccccc1	-4.3
CCCCN1C(=O)c2ccc(C(=O)Nc3cccnc3)cc2C1=O	-0.1
CC(=O)C(Sc1ncnc2c1nnn2-c1ccc(F)cc1)C(=O)N(C)C (configuration not stated)	-1.3
Cc1ccc(COC(=O)CCc2nc3ccccc3c(=O)[nH]2)cc1	-0.2
COc1ccc(-c2cc(C)no2)cc1S(=O)(=O)N(C)c1cccc(C)c1	-0.2
O=C(CSc1ccc(-c2cccnc2)nn1)Nc1ccccc1	0.0
CCCCSc1nnc2c(n1)OC=Nc1ccccc1-2	0.1
CC1(C)CC(=O)c2sc(NC(=O)CN3C(=O)CCC3=O)nc2C1	0.2
CCN(C(=O)COC(=O)c1nn(-c2ccccc2)c(=O)c2ccccc12)C1CCS(=O)(=O)C1 (configuration not stated)	-1.3
COc1cccc(-n2c(-c3ccc4[nH]c(C)c(C)c4c3)n[nH]c2=S)c1	-0.4
COc1ccc(-n2c(SCC(N)=O)nc3nc4c(cc3c2=O)COC(C)(C)C4)cc1	1.3
Next structures follow.
SMILES	STK33 kinase inh
O=C(Nc1cc2c(oc1=O)CCCC2=O)c1ccccc1	0.2
COc1ccc(NS(=O)(=O)c2cc(Br)cc3c2N(C(C)=O)CC3)cc1	-1.2
O=C(NCc1ccccn1)C1CC(c2ccc(Cl)c(Cl)c2)=NO1 (configuration not stated)	-0.6
Cc1ccc(S(=O)(=O)n2c(C)nc3cc(C)ccc32)cc1	1.6
O=C(Nc1cccc(-c2ccc(N3CCCCC3)nn2)c1)c1ccco1	2.5
CC(=O)Nc1ccc(S(=O)(=O)N(C)CC(=O)OCC(=O)c2cc(C)n(-c3ccc4c(c3)OCO4)c2C)cc1	0.4
NS(=O)(=O)c1ccc(N2C(=O)C(=O)/C(=C(/O)c3ccccc3)C2c2ccc(Cl)cc2)cc1 (configuration not stated)	-1.2
COc1ccc2c(=O)c3c(=O)n(Cc4ccco4)c(-c4cc(OC)c(OC)c(OC)c4)nc3oc2c1	-0.2
COC(=O)c1ccc(Oc2cc(C)nc(Cl)n2)cc1	-1.2
CSc1ccc(S(=O)(=O)NCC(=O)OCC(=O)N2CC(C)CC(C)C2)cc1[N+](=O)[O-] (configuration not stated)	-1.2
Cc1ccccc1OCCn1c(=S)[nH]c2ccccc21	-0.9
CCOC(=O)CSc1nnc2c3ccccc3n(CC)c2n1	-2.8
Cn1c(=O)c2c(nc(OC/C=C/c3ccccc3)n2C)n(C)c1=O	0.2
Cc1cccc(C)c1N(CC(=O)N1CCN(c2ccccc2F)CC1)S(C)(=O)=O	-0.6
O=C1CCC(=O)N1CC(=O)N1CCCc2ccccc21	-1.1
C=CCn1c(=N)n(CC(=O)c2ccc(OC)cc2)c2ccccc21	3.7
CC(C)(C)NC(=O)Cn1c(SCC(=O)Nc2nccs2)nc2ccccc21	-2.9
COc1ccc(Cc2ccc(OC)c(N)c2)cc1N	-1.4
CCOC(=O)c1ccc(Nc2cc(C)nc3nc(C)nn23)cc1	-1.2
COc1cccc(-c2noc(-c3ccoc3C)n2)c1	-0.4
CN(CC(=O)Nc1ccccc1Cl)C(=O)COc1cccc2c1OC(C)(C)C2	-0.1
CCNC(=S)N/N=C(\C)c1ccc(Cl)s1	0.4
CCOC(=O)C1(Cc2cccc(OC)c2)CCN(Cc2csc(C(C)=O)c2)CC1	-0.4
O=[N+]([O-])c1cccc2ccc(N3CCOCC3)nc12	3.4
Cn1c(CNS(=O)(=O)c2cccc(Cl)c2)cc(=O)n(C)c1=O	0.5
Continued.
SMILES	STK33 kinase inh
CCCCOC(=O)Nc1nnc(Cc2ccc(Cl)cc2)s1	-1.2
Cc1nn(Cc2ccccc2)c(C)c1NC(=O)Cn1nc([N+](=O)[O-])c(Cl)c1C	1.8
COC(=O)c1cc2c(ccn2-c2ccc(F)cc2)n1Cc1ccc(OC(C)=O)cc1	-0.6
CCOCCCNC(=S)N1CCC(NC(=O)C2CCCCC2)CC1	-1.5
COc1ccc([N+](=O)[O-])cc1Nc1ncnc2ccccc12	-2.2
CC1Cc2ccccc2N1C(=O)CSc1nc(-c2ccccc2)cs1 (configuration not stated)	-0.5
CCOC(=O)C1CCN(C(=O)c2ccccc2NS(=O)(=O)c2ccccc2)CC1	0.6
C#CCSc1nsc(SCC#C)c1C#N	-0.4
O=C(CSc1nnc2ccccn12)N1CCOCC1	-1.4
CCCNC(=O)N1CCC(c2ccc3c(c2)OCO3)CC1	0.1
O=C(O)C1=C[C@@H](c2coc3ccccc3c2=O)C[C@@H](OCCCCO)O1	-0.2
O=C1CCCC(O)=C1C1C2=C(CCCC2=O)OC2=C1C(=O)CCC2	0.3
CSCC[C@H](NC(=O)OC(C)(C)C)C(=O)N/N=C/c1cccc2nccnc12	0.1
O=C(C#Cc1cccc([N+](=O)[O-])c1)c1ccccc1	-1.8
CC1=CCC(C(=O)O)(C(=O)N/N=C/c2cccnc2)C(c2ccccc2)C1 (configuration not stated)	-0.7
O=S(=O)(NCCc1cccs1)c1ccc(Br)cc1	13.3
CC(=O)NC1N=C(C)N(c2ccccc2)C1=O (configuration not stated)	0.4
O=C(COC(=O)C1C2CC3OC(=O)C1C3C2)Nc1ccc(F)cc1 (configuration not stated)	-0.6
COc1ccc(NC(=O)Nc2cccnc2)cc1	0.2
O=C(CN1CCOCC1)Nc1scc(-c2ccccc2)c1C(=O)N1CCOCC1	-1.0
COc1ccc([N+](=O)[O-])cc1NC(=O)c1cc(C)c(C)o1	-2.3
CC(C(=O)Nc1nc2ccccc2s1)n1cc([N+](=O)[O-])cn1 (configuration not stated)	1.0
COc1ccccc1-c1ocnc1C(=O)N1CCN(S(=O)(=O)c2ccc(NC(C)=O)cc2)CC1	-0.4
CC(=O)c1ccc(N2CCN(C(=O)C3CCC3)CC2)cc1	-0.6
CCC1(CC)C(=O)N=C2c3ccccc3C(=O)N21	-0.3
Additional entries
SMILES	STK33 kinase inh
CCCc1cc(C(=O)NNC(=S)NCC)c2ccccc2n1	1.2
CCCCOc1ccc(C(=O)NCc2ccco2)cc1	-0.6
Cc1ccc(/C=C2/SC(=O)N(CC(=O)N3CCOCC3)C2=O)s1	-1.1
COc1ccc(CCNC(=O)CSc2ccc(NC(C)=O)cc2)cc1OC	-0.9
NS(=O)(=O)c1ccc(NC(=O)/C=C/c2ccc(S(=O)(=O)NCc3ccco3)cc2)cc1	4.3
Cc1ccc(N2CC(C(=O)Nc3cc(C)ccc3F)CC2=O)cc1 (configuration not stated)	0.9
O=C(Nc1ccc2c(c1)OCO2)c1c(F)cccc1F	0.5
CCOCCCNC(=O)c1cccc(OC2CCN(S(C)(=O)=O)CC2)c1	-0.2
Cc1cccc(NC(=O)CCS(=O)(=O)c2ccc3c(c2)NC(=O)CS3)n1	-1.0
CN1CCN(S(=O)(=O)c2ccc(-c3ccccc3)cc2)CC1	-1.1
Cc1ccc(NC(=O)N2CCCC2C(=O)Nc2ccc3c(c2)OCO3)cc1 (configuration not stated)	-0.4
COc1ccc2c(c1)CCc1c(C(=O)NCCCn3ccnc3)noc1-2	-0.3
CCOC(=O)Nc1nc(-c2ccc(Cl)cc2Cl)cs1	-1.2
CCOc1cc(NC(=O)c2ccco2)c(OCC)cc1NC(=O)Cc1cccc(OC)c1	-1.0
O=C(NC(=S)NNC(=O)c1ccccc1O)c1cccc([N+](=O)[O-])c1	0.3
C/C(CC1(O)C(=O)N(C)c2ccccc21)=N\O (configuration not stated)	-1.8
O=C(/C=C/c1ccc(-c2ccccc2[N+](=O)[O-])o1)c1ccco1	-0.8
CCOC(=O)c1nnn(-c2nonc2-c2ccccc2)c1C	0.6
COc1ccc(C(=O)Cn2nnc(-c3ccc(N4CCOCC4)cc3)n2)cc1OC	-0.2
CCOc1ccc(/C=N/OCC(=O)NCc2ccco2)cc1	-0.5
O=C(CCCn1nnc2ccccc2c1=O)N[C@H](C(=O)O)c1ccccc1	0.5
COc1cc(/C=N/O)cc(Br)c1OS(=O)(=O)c1ccc(C)cc1	1.6
CCc1ccccc1NC(=O)c1cccc(Oc2ccc([N+](=O)[O-])cc2Cl)c1	-1.7
O=C(O)CCC(=O)Nc1ccc(Sc2ccc([N+](=O)[O-])cc2)cc1	-1.3
OCC1(Cc2cccc(Cl)c2)CCCN(Cc2sc(N3CCCC3)nc2Cl)C1 (configuration not stated)	7.0
Next part:
SMILES	STK33 kinase inh
O=C(Cn1c(/C=C/c2ccccc2)nc2ccccc21)Nc1ccc(F)cc1	0.3
Cc1ccc(NC2(C#N)C(=O)Nc3ccccc32)cc1 (configuration not stated)	-0.8
COCC(C)OC(=O)C(C#N)c1nc2ccccc2nc1N1CCN(Cc2ccccc2)CC1 (configuration not stated)	-0.1
CS(=O)(=O)N(CC(=O)N1CCCC1)c1cc(Cl)ccc1Cl	-2.5
O=S(=O)(/C=C/c1ccccc1)Nc1ccc(F)cc1	-0.6
O=C(O)CSc1nnc(COc2ccc(Br)cc2)n1-c1ccccc1	-1.7
CC(=O)N1CCN(CC(=O)Nc2c(Cl)cccc2Cl)CC1	-6.0
Cc1sc(NC(=O)CN(Cc2ccccc2)C(=O)C2CC2)c(C(N)=O)c1C	-1.2
CCCCCCc1ccc(N2C[C@H](C)[C@@H](CC(=O)NCc3ccccc3)C2=O)cc1	-0.8
O=C(Nc1cccc(S(=O)(=O)N2CCCCCC2)c1)c1ccc2ccccc2n1	-0.6
COc1ccc(NS(=O)(=O)c2cccc(C(=O)OCC(=O)N3CCN(c4ccc(OC)cc4)CC3)c2)cc1	-0.2
Cc1ccccc1CN1CCN(S(=O)(=O)c2cccs2)CC1	-2.8
CCCCS(=O)(=O)NC1=NCN(CC)CN1	-0.8
Cc1cccc(NC(=O)CSCC(=O)Nc2cc(Cl)ccc2N2CCOCC2)c1	-0.8
O=C(Nc1ccc(C(=O)Oc2ccccc2)c(O)c1)c1ccccc1	-0.5
Cc1cc(C)c2c(=O)[nH]c(SCC(=O)NCCc3ccccc3)nc2n1	-0.3
COC(=O)c1ccc(COC(=O)c2ccc(S(=O)(=O)N3CCC(C)CC3)cc2)o1	0.2
O=C(C1CCC(=O)N(C2CCCC2)C1)N1CCN(c2ccccc2Cl)CC1 (configuration not stated)	-0.8
CCOC(=O)C1CCCN(Cc2cc(=O)oc3cc(C)ccc23)C1 (configuration not stated)	-0.4
COc1cc2ccccc2cc1-c1nnc(COc2ccccc2)o1	0.5
O=C(Nc1ccc(Cl)cc1)c1ccc2c(c1)S(=O)(=O)c1ccccc1C2=O	-1.8
COc1cccc(C2=NN(C(=O)c3ccco3)C(O)(C(F)(F)F)C2)c1 (configuration not stated)	-0.1
COc1ccc(Nc2c(-c3ccco3)nc3cccc(C)n23)cc1	0.5
CC(C)[C@H](NC(=O)N1CCn2c1nc1ccccc12)C(=O)N[C@@H](C(=O)O)c1ccccc1	-0.9
Cc1ccc2cc3c(N)[nH]nc3nc2c1	2.6
New compounds follow:
SMILES	STK33 kinase inh
Cc1ccc(S(=O)(=O)N2CCCCC2)cc1NC(=O)CN1C(=O)CN(C)C1=O	-0.2
O=C(CN(C(=O)CNC(=O)c1ccco1)c1ccc2c(c1)OCCO2)NC1CCCCC1	-1.3
O=C(Cn1nc(-c2ccco2)ccc1=O)Nc1cc(C(F)(F)F)ccc1Cl	0.4
CCN1c2ccccc2-c2nc3ccccc3n2C1c1cccnc1 (configuration not stated)	6.9
N#Cc1cc(-c2cccc(Cl)c2)c[nH]c1=O	-2.7
Cc1cccc(-n2ncc3c(N4CC(C)CC(C)C4)ncnc32)c1 (configuration not stated)	-1.9

6 entries out of the list, sorted by SMILES length, lowest first:
SMILES	STK33 kinase inh
Cc1ccc2cc3c(N)[nH]nc3nc2c1	2.6
CCN1c2ccccc2-c2nc3ccccc3n2C1c1cccnc1 (configuration not stated)	6.9
Cc1cccc(-n2ncc3c(N4CC(C)CC(C)C4)ncnc32)c1 (configuration not stated)	-1.9
O=C(Cn1nc(-c2ccco2)ccc1=O)Nc1cc(C(F)(F)F)ccc1Cl	0.4
Cc1ccc(S(=O)(=O)N2CCCCC2)cc1NC(=O)CN1C(=O)CN(C)C1=O	-0.2
O=C(CN(C(=O)CNC(=O)c1ccco1)c1ccc2c(c1)OCCO2)NC1CCCCC1	-1.3

Arranged by value in STK33 kinase inh (falling): 6 from the list above
SMILES	STK33 kinase inh
CCN1c2ccccc2-c2nc3ccccc3n2C1c1cccnc1 (configuration not stated)	6.9
O=C(Cn1nc(-c2ccco2)ccc1=O)Nc1cc(C(F)(F)F)ccc1Cl	0.4
Cc1ccc(S(=O)(=O)N2CCCCC2)cc1NC(=O)CN1C(=O)CN(C)C1=O	-0.2
O=C(CN(C(=O)CNC(=O)c1ccco1)c1ccc2c(c1)OCCO2)NC1CCCCC1	-1.3
Cc1cccc(-n2ncc3c(N4CC(C)CC(C)C4)ncnc32)c1 (configuration not stated)	-1.9
N#Cc1cc(-c2cccc(Cl)c2)c[nH]c1=O	-2.7

These rows are one share of the data; most or all hits stand in other tables.
